# Compound activity (PubChem)
# SARS PLpro yeast: qHTS of Yeast-based Assay for SARS-CoV PLP | hit rate 0.19% among 330,000 | Potency, µM (doses to about 32.9 µM), without a hit: top-dose activity, positive = growth rescue | AID 485353, 2010 | S. cerevisiae expressing SARS-CoV PLpro, growth rescue; control for the full effect not named in the record; further: 0% is about no effect; nearly all actives have a fitted effect of over 55% in size; growth read by luminescence after 48 h
# Cruzain inh noDet: qHTS Assay for Promiscuous and Specific Inhibitors of Cruzain (without detergent); hit rate 2.3% among 200,000; Potency, µM, without a hit: max response, negative = inhibition, most hits filed as inhibitors; AID 1476, 2009; purified cruzain, Z-FR-AMC fluorescence, no detergent; Cruzipain (Trypanosoma cruzi), P25779; active means well fitted curve in the direction sought with a large enough effect; inconclusive means small, poorly fitted or top-dose-only effect, or another doubt; inactive means no such curve, though single readings can be large; an effect the other way counts as inactive or inconclusive;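 further: plate controls were enzyme without inhibitor for no effect and buffer without enzyme for full effect; nearly all actives have a fitted effect of over 40% in size; top concentration of the series not given in the record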
# Target sequence (P25779 123-467 limits assumed): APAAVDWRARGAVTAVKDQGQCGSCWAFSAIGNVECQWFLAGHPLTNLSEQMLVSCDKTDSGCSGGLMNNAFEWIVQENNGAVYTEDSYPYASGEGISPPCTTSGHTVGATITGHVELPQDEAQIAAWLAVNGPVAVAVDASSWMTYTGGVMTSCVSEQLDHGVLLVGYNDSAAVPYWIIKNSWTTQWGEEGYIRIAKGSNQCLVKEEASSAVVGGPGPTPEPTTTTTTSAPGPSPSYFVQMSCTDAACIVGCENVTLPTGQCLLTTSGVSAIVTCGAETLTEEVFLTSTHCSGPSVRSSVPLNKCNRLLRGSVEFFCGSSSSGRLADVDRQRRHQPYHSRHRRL
#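 Detergent-free condition (0.00005% Triton X-100) in acetate buffer pH 5.5 with DTT. 1.5 nM enzyme and compound were pre-mixed 15 min, then 2 uM Z-FR-AMC substrate added; reaction progress from fluorescence change between first and third reads (60 s).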
# LASV entry inh: qHTS for Inhibitors of binding or entry into cells for Lassa Virus; Potency, µM (top dose mostly 37.9 µM), for the others: at the top dose activity change, negative = inhibition, actives largely listed as inhibitors; hit rate 1.2% among 300,000; Lassa virus pseudotype entry inhibition, cell reporter; control for the full effect not named in the record; active means well fitted inhibition curve with a large enough effect; inconclusive means small, poorly fitted or top-dose-only effect, or effect the other way; inactive means flat fitted curve, though single readings scatter; tested in HEK293 cells; further: on the % scale 0 is the no-effect control and ±100 the full control effect; nearly all actives have a fitted effect of over 50% in size; luciferase read-out
# NS1 function inh: qHTS Assay for Inhibitors of Influenza NS1 Protein Function. S. cerevisiae slowed by influenza A NS1, growth recovery by OD600. hit rate 0.4% among 270,000. Potency, µM (series often up to 46.1 µM), for the others: top-dose activity, positive = more growth; further: actives are rising curves; nearly all actives have a fitted effect of over 50% in size
#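 Recovery from NS1-induced slow growth read by OD600 in budding yeast switched to galactose assay medium (pH 6.0, -URA) at 1:100 dilution. Compound 23 nl per well; the matching strain lacking NS1 serves as control.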
# RE007 growth inh: qHTS Assay for Inhibitors of the HIV-1 protein Vpr; hit rate 0.21% among 360,000; Potency, µM (doses to about 92.2 µM), for inactives: at the top dose activity change, negative = less growth; S. pombe RE007 Vpr strain, BacTiter-Glo ATP luminescence, 24 h; control for the full effect not named in the record; active = well fitted falling curve with a large enough effect; inconclusive = small, poorly fitted or top-dose-only effect; inactive = no such curve, though single readings can be large or run the other way;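 further: on the % scale 0 is the no-effect control and ±100 the full control effect; nearly all actives have a fitted effect of over 50% in size; the assay follows cell death caused by Vpr and the record does not say whether a fall means rescue or toxicity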
#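 Fission yeast RE007 carrying one integrated HIV-1 vpr copy, seeded at OD 0.01 in PMG+AL medium with 23 nL pinned compound. Grown 24 h at 30 degrees; viability read by BacTiter-Glo luminescence after 5 min.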
# Marburg entry inh: qHTS for inhibitors of binding or entry into cells for Marburg Virus. Marburg virus pseudotyped entry inhibition, cell reporter; control for the full effect not named in the record; about a third of the inactives were read at about 46 µM. Potency, µM (doses to about 37.8 µM), inactives show at the top dose activity change, negative = inhibition, hits mostly inhibitors. hit rate 1.8% among 300,000; active = well fitted inhibition curve with a large enough effect; inconclusive = small, poorly fitted or top-dose-only effect, or effect the other way; inactive = flat fitted curve, though single readings scatter; tested in HEK293 cells; about a fifth of its hits are not listed in these tables; further: on the % scale 0 is the no-effect control and ±100 the full control effect; luciferase read-out
# StopGo reporter: High Throughput Screening for Foot and Mouth Disease Virus Antivirals. Potency, µM (series often up to 57.9 µM), without a hit: at the highest dose signal change, negative = less light. AID 1159524, 2015. hit rate 1.2% among 410,000. human cells with a luciferase reporter of 2A StopGo recoding; control for the full effect not named in the record; active = well fitted falling curve with a large enough effect; inconclusive = small, poorly fitted or top-dose-only effect; inactive = no such curve, though single readings can be large or run the other way; tested in HEK293T cells; further: on the % scale 0 is the no-effect control and ±100 the full control effect; nearly all actives have a fitted effect of over 45% in size; luciferase light after 4 h
# Cruzain Triton: qHTS Assay for Promiscuous and Specific Inhibitors of Cruzain (with detergent); Cruzipain (Trypanosoma cruzi), P25779; purified cruzain, Z-FR-AMC fluorescence, 0.01% Triton; Potency, µM, inactives show max response, negative = inhibition, usual class: inhibitors; hit rate 0.43% among 200,000; AID 1478, 2009; active means well fitted curve in the direction sought with a large enough effect; inconclusive means small, poorly fitted or top-dose-only effect, or another doubt; inactive means no such curve, though single readings can be large; an effect the other way counts as inactive or inconclusive;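 further: plate controls were neutral wells for no effect and buffer without enzyme for full effect; nearly all actives have a fitted effect of over 40% in size; top concentration of the series not given in the record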
#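 Purified cruzain (1.5 nM final) was preincubated with compounds for 15 min at room temperature in 100 mM sodium acetate pH 5.5, 5 mM DTT, 0.01% Triton X-100. Reaction started with 2 uM Z-FR-AMC; AMC fluorescence change over 60 s gave activity.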
# The depositor's hits bear a star; ? = inconclusive; / = not tested or not shown; & = joins results of further samples; ! = a repeat was not active; [ ] = dose if it differs, or a comment. Unless noted, the call rests on the fitted dose curve; in most records, active means well fitted rising curve with a large enough effect; inconclusive means small, poorly fitted or top-dose-only effect; inactive means no such curve, though single readings can be large or run the other way. Potency means the concentration at half of the fitted maximal effect. No enrichment for hits, and some 4.7% of all compounds hit somewhere here.
SMILES,SARS PLpro yeast,Cruzain inh noDet,LASV entry inh,NS1 function inh,RE007 growth inh,Marburg entry inh,StopGo reporter,Cruzain Triton
Cc1cc(CNC(=O)COc2ccc(C)c(C)c2)c2ccccc2n1,-0.7%,/,17.3%[46.1 µM],/,-10.9%,?,-29.8%,/
COc1cc2c(cc1OC)C(CCc1ccccc1)=NCC2,6.1%,/,?,0.3%,-4.9%,?,0.0%,/
COc1ccccc1N1CC(C(=O)Nc2nnc(SCC(=O)N3CCOCC3)s2)CC1=O (centres undefined),-1.3%,/,-2.8%,3.7%,-16.6%,-5.2%,-19.2%,/
Cc1ncsc1CCOC(=O)c1cccc([N+](=O)[O-])c1,-17.6%&-5.0%,0.7%&-6.8%,-2.3%,0.6%&0.6%,?,?,-17.4%&4.6%,-5.5%&-2.4%
Cc1cc(C(=O)N/N=C/c2ccc3c(c2)OCO3)c2ccccc2n1,0.8%,/,/,-1.8%,-8.4%,0.4%,-4.4%,/
O=C(NNS(=O)(=O)c1ccccc1F)c1cc(-c2ccccc2)n[nH]1,-0.3%,/,-13.5%,-7.1%,6.9%,-7.5%[46.1 µM],0.0%,/
N#Cc1cccnc1N1CCN(C(=O)c2cccs2)CC1,-0.8%,/,24.5%[46.1 µM],0.8%,2.1%,7.9%[46.1 µM],10.0%,/
COc1ccccc1Cn1c(=O)c2ccccc2n2c(SCc3csc(C)n3)nnc12,1.1%,2.8%,12.5%,-0.5%,8.1%,-17.6%,/,-3.2%
Cc1ccc(CSCCNC(=O)CN2C(=O)c3ccccc3S2(=O)=O)cc1,-6.5%,-7.9%,12.5%,2.1%,5.5%,9.1%,/,-3.8%
O=C(CNC(=O)C1CCCCC1)NC1=NCCS1,-2.0%,-9.2%,-23.0%,-3.3%,-4.9%,17.6%,/,-7.3%
O=c1cc(-c2ccccc2)nc2nc(-c3ccccc3)[nH]n12,0.4%,-14.3%,4.1%,-2.6%,5.9%,22.4%[46.1 µM],36.7%[activator],-1.6%
O=C(Nc1ccc(Cl)cc1C(F)(F)F)c1ccccc1Cl,18.3%,10.7%,18.7%,-4.8%,2.9%,-23.9%,42.3%[activator],-2.1%
O=[N+]([O-])c1cc(-c2nc(-c3ccccc3)no2)ccc1NCC1CCCO1 (centres undefined),/,20.4%,?,/,/,-28.3%[46.1 µM],67.3%[activator],-5.9%
CC(C)CN(CC(C)C)C1=N/C(=C\c2ccco2)C(=O)N1c1ccccc1,-2.1%,5.2%,-10.8%,16.7%,-4.8%,?,-20.9%,-9.9%
Cc1cccc(-c2nc3nc(C)cc(NC(C)c4ccccc4)n3n2)c1 (centres undefined),/,15.6%,0.2%[46.1 µM],/,/,/,-18.7%,-5.8%
CC(C)Cc1n[nH]c(=O)[nH]1,2.5%,-13.3%,1.7%,3.6%,5.6%,23.9%,-14.6%,-1.2%
CSc1nc(N(C)NC(=O)c2ccc(F)cc2)c2ccccc2n1,-1.4%,-1.0%,?,10.4%,-6.3%,1.26µM*,-5.3%,5.3%
COCCOc1ccc(C(F)(F)F)cc1NC(=O)CN1C(=O)NC2(CCc3ccccc32)C1=O (centres undefined),6.1%,/,-3.9%,/,-7.4%,5.4%,-3.1%,/
O=C(NCCS(=O)(=O)NCCc1ccccc1)c1ccc2c(c1)OCO2,-0.8%,/,-5.2%,/,-6.8%,-25.8%,12.5%,/
COc1ccccc1Oc1ccc2c(c1)C(=O)N(CC1CCCO1)C2=O (centres undefined),-0.6%,/,?,-4.4%,1.2%,13.7%,-11.0%,/
COc1ccc(N2CCN(S(=O)(=O)c3ccc(C4CCCCC4)cc3)CC2)cc1,/,0.1%,26.7%[46.1 µM],/,/,-21.6%[46.1 µM],-10.5%,-0.3%
CCOC(=O)c1[nH]c(C)c(CCC(=O)N2CCN(c3ccc(Cl)cc3)CC2)c1C,/,?,-13.0%[46.1 µM],/,/,/,?,-2.0%
Cn1nc(C(F)(F)F)c(C(=O)Nc2ccc(F)cc2F)c1Oc1cccc(Cl)c1,-2.3%,-1.0%,-2.0%,-1.5%,10.1%,-8.0%,?,-6.9%
COc1ccc(CCNC(=O)CN(c2ccc(OC)c(OC)c2)S(=O)(=O)c2ccc(C)cc2)cc1,-0.1%,/,-30.0%,3.9%,-4.5%,1.2%[46.1 µM],5.1%,/
CCn1c(CNc2ccc(F)cc2)nnc1SCC(=O)Nc1ccc(OC)cc1OC,2.8%,?,-2.8%,-5.6%,5.1%,-2.6%&-27.9%,9.8%,-5.9%
CCCCOC(=O)c1ccc(NC(=O)c2ccc3c(c2)CCN3S(=O)(=O)c2ccccc2)cc1,/,12.6µM*,-15.6%[46.1 µM],/,/,?,-18.4%,-0.5%
Cc1csc(NC(=O)CSc2ccc(-c3ccc(F)cc3)nn2)n1,0.2%,/,?,16.1%,0.1%,?,?,/
COC(=O)c1c(NC(=O)Cc2ccccc2)sc2c1CCN(C(C)C)C2,-13.3%,/,/,3.4%,4.6%,/,0.0%,/
CN(C)c1nc2c(c(=O)[nH]c(=O)n2C)n1Cc1ccc(F)cc1,-0.3%,2.8%,/,-31.9%,-4.4%,/,-19.9%,-0.5%
Cn1ccc(O)c(C#N)c1=O,0.2%,-1.5%,/,2.9%,-3.9%,/,-12.7%,3.1%
Cc1ccc2cc(C(c3nnnn3CC3CCCO3)N3CCc4ccccc4C3)c(=O)[nH]c2c1 (centres undefined),-6.7%,1.7%,-5.1%,6.5%,-4.6%,-6.2%&-6.2%,31.2%[activator],-0.1%
CC(=O)OC(COC1C[C@@H]2CC[C@@]1(C)C2(C)C)C[N+]1(C)CCCCC1 (some centres undefined),0.5%,/,-6.5%,-2.1%,-6.2%,-20.8%,-25.4%,/
CNC[C@H](CC1CCCCC1)NC[C@H](CO)NCCc1cccc(C(F)(F)F)c1,-12.3%,/,/,-3.7%,-0.7%,/,-16.0%,/
CCOC(=O)C1(CCOc2ccccc2)CCN(CC(O)CO)CC1 (centres undefined),4.1%,/,/,?,-8.8%,/,-16.1%,/
CCOc1ccc(CN2CCNC(=O)C2CC(=O)NCCc2nc(C)c3c(n2)CCC3)cc1 (centres undefined),-5.7%,/,/,2.7%,15.4%,/,?,/
COC(=O)c1cc(NC(=O)Cn2nc(C)n3cccc3c2=O)cc(C(=O)OC)c1,?,-11.0%,?,-4.4%,5.7%,?,-0.3%&-4.7%,-4.9%
CC(=O)c1cc(F)ccc1OCC(=O)Nc1ccc2c(c1)OCO2,5.9%,/,?,/,14.4%,/,13.1%,/
COc1cc(OC)cc(C(=O)N[C@H](C(=O)NCCc2c[nH]c3ccccc23)C(C)C)c1,0.3%,/,?,/,3.8%,6.5%,-6.3%,/
Cc1ccccc1OCC(=O)Nc1ccccc1N1CCOCC1,-34.3%,9.4%,?,-13.9%,4.9%,?,0.0%,-4.6%
CC(C)(C)n1nnnc1C(c1ccncc1)N1CCN(c2ccc(O)cc2)CC1 (centres undefined),-10.5%,0.0%,6.2%,-2.7%,-14.3%,7.6%&7.6%,/,3.7%
Cc1ccc(S(=O)(=O)Nc2ccc(O)c3ccccc23)c(C)c1,-5.9%,/,-6.0%,-4.6%,-9.8%,?,-11.7%,/
C/C(CC(=O)Nc1ccc(Cl)c(C(F)(F)F)c1)=N\NC(=O)c1cnccn1,-0.6%,/,?,8.5%,-1.3%,?,-7.6%,/
CN(CCC1CCOCC1)Cc1nc(Cc2ccccc2F)no1,-0.7%,/,/,-2.1%,6.7%,/,0.1%,/
COc1ccc(OC)c(NC(=O)CSc2nnnn2-c2ccc3c(c2)OCO3)c1,1.8%,-3.3%,8.9%,6.7%,-9.3%,18.3%,/,-8.6%
CC(=O)NCCC(=O)Nc1cc(S(=O)(=O)N2CCOCC2)ccc1Oc1ccccc1,-0.3%,/,/,7.1%,-1.0%,/,-3.1%,/
COc1cccc(/C=C2\SC(=S)N(CCC(=O)NC3C=CS(=O)(=O)C3)C2=O)c1 (centres undefined),-0.4%,/,/,-12.0%,7.7%,/,7.0%,/
CC(C)C(C(=O)Nc1ccc(N2CCOCC2)cc1)N1C(=O)c2ccccc2C1=O (centres undefined),-0.8%,-11.4%,-0.1%,2.3%,8.0%,16.2%,/,3.9%
NC(=O)C1CC(=O)N(c2ccc(OCc3c(F)cccc3Cl)cc2)C1 (centres undefined),-0.3%,/,-8.4%,0.8%,20.9%,-22.5%,18.1%,/
CN1CCN(c2c(N)c(=O)oc3ccccc23)CC1,2.0%,-7.0%,4.1%,-1.1%,5.6%,1.1%,/,3.6%
Cc1ccc(CNS(=O)(=O)c2ccc3c(c2)CCN3S(C)(=O)=O)cc1,/,-2.7%,-28.2%[46.1 µM],/,/,/,-15.0%,-1.0%
O=C(/C=C/c1ccccc1)N1CCC[C@H]1CO,13.6%,-2.6%,1.3%,9.7%,-0.7%,11.2%,0.0%,1.1%
Cc1ccc(Cl)cc1N1CCN(C(c2cccnc2)c2nnnn2C2CCCCC2)CC1 (centres undefined),-0.5%,11.3%,?,-51.5%,-2.4%,14.6µM*!,/,-6.1%
O=C(/C=C/c1ccc(Cl)cc1)NC(=S)Nc1ccc(NC(=O)c2ccco2)cc1,2.4%,?,1.58µM*,12.0%,-1.9%,?,-21.8%,-1.2%
Cn1cc(S(=O)(=O)Oc2ccccc2)c(=O)n(C)c1=O,2.9%,/,/,/,-3.0%,12.3%[46.1 µM],-1.5%,/
